N370S GC mod: inhibits or activates N370S mutant glucocerebrosidase; N370S GC spleen homogenate, 4MU-glucoside fluorescence; Potency, µM (doses to about 59.4 µM), inactives show at the top dose activity change, negative = inhibition, hits mostly inhibitors; 330,000 tested, 0.092% active;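 note: 0% = full enzyme activity and -100% = no enzyme basal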
FEN1 inhibitor: blocks human flap endonuclease 1; P39748; Recombinant FEN1 flap cleavage, fluorescence, 15 min; Potency, µM (doses to about 114 µM), without a hit: at the highest dose activity change, negative = inhibition, most hits filed as inhibitors; 390,000 tested, 0.35% active; note: nearly all actives have a fitted effect of over 65% in size
Target sequence (P39748 whole entry, looked up): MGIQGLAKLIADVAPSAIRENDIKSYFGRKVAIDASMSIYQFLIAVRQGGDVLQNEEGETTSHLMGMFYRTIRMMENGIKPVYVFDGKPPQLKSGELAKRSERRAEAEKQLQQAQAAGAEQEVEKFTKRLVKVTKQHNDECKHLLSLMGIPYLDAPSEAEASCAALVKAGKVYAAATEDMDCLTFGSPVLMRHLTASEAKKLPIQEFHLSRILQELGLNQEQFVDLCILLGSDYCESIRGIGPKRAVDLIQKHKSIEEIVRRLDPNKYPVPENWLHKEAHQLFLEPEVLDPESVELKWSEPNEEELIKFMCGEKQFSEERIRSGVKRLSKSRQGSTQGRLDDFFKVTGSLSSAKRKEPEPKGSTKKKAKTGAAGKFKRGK
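FEN1 at 10 nM, compound pretreatment for 15 min (room temperature), 50 nM final substrate to initiate; endpoint reads at 0 and 15 min; DMSO-only plates used as vehicle background.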
* hit, by the source's call; ? = inconclusive; · = not tested or not shown. Calls come from the whole dose curve; as a rule, active = well fitted curve in the direction sought with a large enough effect; inconclusive = small, poorly fitted or top-dose-only effect, or another doubt; inactive = no such curve, though single readings can be large; an effect the other way counts as inactive or inconclusive. Unless noted, % is set by controls: 0 for no effect and ±100 for the full control effect; potency is the fitted concentration of half-maximal effect. This is a subset, and most or all hits are left out here.

Compound	N370S GC mod	FEN1 inhibitor
O=C(CN1CCN(Cc2ccc3c(c2)OCO3)CC1)Nc1ccc2c(c1)OCCO2	-1%	-3%
O=[N+]([O-])/C=C/c1cn(Cc2ccccc2)c2ccccc12	-20%	-16%
COc1cc2c(cc1OC)C(C(=O)O)C(c1cc(Br)c(O)c(OC)c1)N(C)C2=O (stereo not given)	24%	-3%
CCN(CC(=O)N1CCCC1)S(=O)(=O)c1ccc(Br)cc1	4%	0%
CCOc1ccc(S(=O)(=O)NCCC(=O)NCc2ccccn2)cc1	-4%	0%
COc1cccc(CC(=O)Nc2sc3c(c2C(N)=O)CCCC3)c1	0%	11%
CC(C)Cc1cc(CNC(=O)C2CCC(=O)N(CCc3cccc(F)c3)C2)on1 (stereo not given)	-6%	-4%
O=C(CN1C(=O)C(=O)N(C2CCCC2)C1=O)Nc1ccc(Cl)cc1C(F)(F)F	·	-1%

Complete entries from above:
`CCN(CC(=O)N1CCCC1)S(=O)(=O)c1ccc(Br)cc1` is listed with N370S GC mod = 4%; FEN1 inhibitor = 0%
`O=C(CN1CCN(Cc2ccc3c(c2)OCO3)CC1)Nc1ccc2c(c1)OCCO2` is listed with N370S GC mod = -1%; FEN1 inhibitor = -3%

(continued)
Compound	N370S GC mod	FEN1 inhibitor
Cc1ccc(CNS(=O)(=O)c2c(C)nc3sc(C)cn3c2=O)cc1	·	15%
CCc1cccc(NC(=O)CN(C)S(=O)(=O)c2ccc3[nH]c4c(c3c2)CCCC4)c1	·	-18%
O=C(Cc1cccs1)N1CCN(c2ccc([N+](=O)[O-])cc2)CC1	7%	-4%
Cc1ccc2oc(=O)n(CCOc3ccccc3C)c2c1	6%	-1%
CCSc1nnc(NC(=O)C(C)C)s1	2%	-13%
CCc1ccc2nc3c(c(C(=O)O)c2c1)CCC3	9%	2%
O=C(Cc1ccsc1)Nc1ccc2c(c1)OCO2	·	-9%
C#CCOc1ccc(OC)cc1C(c1c(C)[nH][nH]c1=O)c1c(C)[nH][nH]c1=O	2%	-20%
O=c1oc2ccccc2c(Nc2ccccc2)c1CN1CCCCC1	-1%	-2%
O=C(Nc1ccc(NC(=O)c2cccs2)cc1)c1cccs1	-6%	7%
COc1ccc(NC(=O)COC(=O)C2CC(=O)N(c3ccc(OC(C)C)cc3)C2)cc1 (stereo not given)	-10%	-2%
COc1cc(C(=O)N2CCN(S(=O)(=O)c3cccc(F)c3)CC2)ccc1OCC(=O)N1CCOCC1	-9%	4%
O=C(NCCOc1ccccc1F)C1CCC(=O)N(CCc2cccc(F)c2)C1 (stereo not given)	-7%	-12%
O=C(NCCCn1ccnc1)Nc1ccc(Cl)cc1	-2%	-7%
COc1ccc(CCN2C(=O)CC(N3CCOCC3)C2=O)cc1 (stereo not given)	-12%	5%
CC12CCC(=O)N1C(C(=O)Nc1ccc(S(=O)(=O)N3CCCCC3)cc1)CS2 (stereo not given)	-2%	5%
Cc1cc(Nc2ccccc2)n(C(=O)c2ccc(N)cc2)n1	-3%	-20%
Clc1ccc2[nH]c(-c3ccccc3)cc2c1	0%	-7%
CC(=O)OC1C([N+]2(C)CCCCC2)C[C@H]2C3CC[C@H]4C[C@H](OC(C)=O)C([N+]5(C)CCCCC5)CC4(C)C3CCC12C (stereo not given in full)	22%	·
CC[C@]12c3[nH]c4cc(CCC(=O)N(C)C)ccc4c3CCN1C(=O)[C@@H](CC(=O)NCCN1CCOCC1)C[C@@H]2C(=O)N1CCN(C(=O)C2CC2)CC1	·	-2%
CSCCC(NC(=O)OC(C)(C)C)C(=O)NC(C(=O)NC(CC(C)C)C(N)=O)C(C)C (stereo not given)	0%	0%
Cc1nn(C)c(C(=O)N/N=C/c2ccccn2)c1[N+](=O)[O-]	-4%	21%
Cc1nc(NCC2CCCO2)c2oc3ccccc3c2n1 (stereo not given)	-1%	-3%
COc1c(S(=O)(=O)N2CCN(c3ccc(F)cc3)CC2)ccc(Cl)c1Cl	10%	-10%
CC(=O)N1C(=O)C(=C2C=C(C)OC(C)=C2)c2ccccc21	-2%	1%
COc1ccc2c(c1)c(=O)c(C(=O)O)c(-c1ccc3c(c1)OCO3)n2C	7%	0%
Cc1cc(C(=O)NC(C)C2CCCO2)no1 (stereo not given)	-15%	-10%
CCCCCOC(=O)C1=C(C)NC(=O)NC1c1ccc(N(C)C)cc1 (stereo not given)	-3%	13%
COc1ccc(NC(=O)CCNC(=O)N2CC(=O)Nc3ccccc32)c(OC)c1	16%	23%
O=C(COC(=O)CCN1C(=O)/C(=C\C=C\c2ccccc2)SC1=S)Nc1ccc(Br)cc1	8%	-13%
COc1ccc(C2C3=C(CC(C)(C)CC3=O)Nc3c2c(=O)[nH]c(=O)n3Cc2ccccc2)cc1OC (stereo not given)	-3%	-8%
O=C(O)COc1ccc(/C=N/NC(=O)Cc2ccc(Cl)cc2)cc1	0%	0%

Exported with each value named: entries from further up.
CC(=O)N1C(=O)C(=C2C=C(C)OC(C)=C2)c2ccccc21
  N370S GC mod = -2%; FEN1 inhibitor = 1%
COc1ccc2c(c1)c(=O)c(C(=O)O)c(-c1ccc3c(c1)OCO3)n2C
  N370S GC mod = 7%; FEN1 inhibitor = 0%
Cc1cc(C(=O)NC(C)C2CCCO2)no1 (stereo not given)
  N370S GC mod = -15%; FEN1 inhibitor = -10%
CCCCCOC(=O)C1=C(C)NC(=O)NC1c1ccc(N(C)C)cc1 (stereo not given)
  N370S GC mod = -3%; FEN1 inhibitor = 13%

(continued)
Compound	N370S GC mod	FEN1 inhibitor
COc1ccc(C(=O)Nc2cc3c(cc2N2CCCC2)n(C)c(=O)c(=O)n3C)cc1OC	·	-15%
CCSc1nnnn1-c1ccccc1	1%	0%
COc1ccc(OC)c(CCNC(=O)C2=C(C)C(=O)OC23CCC(C)CC3)c1 (stereo not given)	·	2%
Cc1[nH]ccc(=O)c1OC1OC(CO)C(O)C(O)C1O (stereo not given)	6%	-2%
Cc1cc(C)cc(NS(=O)(=O)c2ccc(F)cc2)c1	4%	0%
COc1ccc(CCNC(=O)c2cc(-c3ccncc3)nc3ccc(S(=O)(=O)N4CCOCC4)cc23)cc1OC	-16%	-1%
COc1cccc(NC(=O)CN(C)C(=O)c2ccccc2-c2nc3ccccc3s2)c1	-3%	7%
CC(C)Oc1ccc(C(CC(=O)O)Cc2ccccc2)cc1 (stereo not given)	-3%	0%
Nc1nn2c(-c3ccccc3)cc(=O)[nH]c2c1N=Nc1ccc(O)cc1	-1%	?
CC(C(=O)NC1C(=O)N2C(C(=O)O)=C(CSc3nnnn3C)CSC12)n1cc(Cl)cn1 (stereo not given)	-2%	-6%
CCOC(=O)c1c(C)sc2c1N(C(=O)CCl)c1cc(Cl)ccc1S2	25%	-4%
CCOc1ccc(C2C(C#N)=C(N)Oc3cc(C)n(CCN(C)C)c(=O)c32)cc1OCC (stereo not given)	2%	-15%
Cc1cc(C)cc(NC(=O)C(Nc2ccccc2)c2ccccc2)c1 (stereo not given)	16%	-30%
COc1ccc(CN(C)CC(=O)Nc2ccccc2C(=O)NC2CC2)cc1	·	-1%
CCCCNC(=O)C1(c2ccc(OC)cc2)CCOCC1	9%	-7%
CCOc1ccccc1NS(=O)(=O)c1cc2c3c(c1)CC(=O)N3CCC2	3%	-10%
O=C(COc1ccc2c3c(c(=O)oc2c1)CCC3)NCC1CCC(C(=O)O)CC1 (stereo not given)	0%	-2%
Cc1ccc(S(=O)(=O)N2CCN(S(=O)(=O)N3CCC(C)CC3)CC2)c(C)c1	-3%	-1%
CSc1nc2nc(C)cc(-c3ccccc3)n2n1	10%	11%
Cc1ccc(NC(=O)NC(=O)CN2C(=O)NC3(CCCCCCC3)C2=O)c(C)c1	-2%	4%
CCc1cc2c(=O)[nH]c(-c3ccccn3)nc2s1	27%	14%
CC(C)=CCCC1=CC[C@H](C(=O)O)[C@H](C(=O)O)C1	-1%	·
COc1ccccc1NC(=O)C1CCCN(S(=O)(=O)c2ccc3c(c2)CC(C)N3C(C)=O)C1 (stereo not given)	-7%	-12%
Cc1ccc(NC(=O)CN(C)CCOc2ccccc2)c([N+](=O)[O-])c1	-6%	-8%
Cc1cc(C)cc(NC(=O)CSc2nnc(C3CC3)n2CC2CCCO2)c1 (stereo not given)	-1%	5%
O=C(CCc1nnc2n(Cc3ccccc3Cl)c(=O)c3ccccc3n12)Nc1ccc(F)c(F)c1	·	2%
CCCOc1ccc(CNC(=O)C2CCN(c3nnc(N4CCCC4=O)s3)CC2)cc1	-4%	-1%
COc1ccc(N(CC(=O)NCCSCc2ccccc2C)S(=O)(=O)c2ccccc2)cc1	-13%	11%
CC(=O)c1oc2ccccc2c1NC(=O)CCCN1C(=O)c2ccccc2C1=O	5%	-10%
CSc1ncccc1C(=O)OCC(=O)c1ccccc1Br	9%	-16%
CN1C(=O)C2(c3ccccc31)c1c(oc3ccccc3c1=O)C(=O)N2CCCO (stereo not given)	4%	7%
COC(=O)[C@H](CCSC)NC(=O)Cn1ccc(N)nc1=O	·	-3%
Cc1ccc(C)c(/C=N/Nc2nc3ccccc3c(=O)n2O)c1	8%	-19%
CC(=O)Nc1c(C)nn(-c2ccc(C)c(C)c2)c1C	5%	-5%
Cc1ccc(NC(=O)NNC(=O)c2cc3ccccc3cc2O)cc1C	0%	-14%
CC(C)Cc1nnc(NC(=O)CSc2nc(=O)cc(N)n2-c2ccccc2)s1	-1%	-5%
Cc1ccc(N(CC(=O)NC(C)(C)C)C(=O)CCC(=O)Nc2nccs2)c(C)c1	-9%	-1%
COCCn1c(Cc2ccccc2)nnc1SCC(=O)NC1CC1	-29%	-1%
CC(=O)/C(=N/Nc1ccccc1)N1CCOCC1	-5%	9%
O=C(CCCn1cncn1)N1CCCC(Nc2ccc(F)cc2)C1 (stereo not given)	-8%	-2%
Cc1cccc(N(CC(=O)NC2CCCC2)C(=O)CS(=O)CC(=O)Nc2ccc3c(c2)OCO3)c1C (stereo not given)	3%	-4%
CCOC(=O)CC(NC(=O)c1cc2cccc(OC)c2oc1=O)c1cccc([N+](=O)[O-])c1 (stereo not given)	-2%	-2%
COC(=O)C1=C(C)NC(=O)NC1c1cc(Cl)ccc1OC (stereo not given)	3%	-1%
O=C(NCc1ccccc1)C1CCCN1S(=O)(=O)c1ccc(F)cc1 (stereo not given)	-12%	8%
CCCC(C)C(=O)OCC(=O)NCc1ccc(OC)c(OC)c1 (stereo not given)	-2%	-1%
COc1ccccc1CNC(=O)C(=O)NCC1OCCCN1S(=O)(=O)c1cccs1 (stereo not given)	-13%	-3%
O=c1[nH]c(-c2ccccn2)nc2sc(-c3ccccc3)cc12	9%	-20%
CN1CCC(C2(O)c3ccccc3CSc3sccc32)CC1 (stereo not given)	11%	3%
COc1ccc(CCNC(=O)C2CCN(Cc3nc(-c4ccccc4C)oc3C)CC2)cc1OC	7%	10%
O=C(OCC(=O)N1CCCc2ccccc21)c1ccccc1OC(F)F	·	-4%
CCOc1ccc(NC(=O)COc2ccc(C(=O)NCc3cccnc3)cc2OC)cc1	-1%	8%
Cn1c(CCNC(=O)c2ccco2)nc2cc([N+](=O)[O-])ccc21	-6%	-9%
Cn1c(=O)c2c(nc(N3CCN(c4ccccn4)CC3)n2Cc2ccccc2Cl)n(C)c1=O	4%	-12%
CO/N=C(/CNC(=O)c1cccc(Cl)c1)c1ccc(Cl)cc1	3%	-1%
Cc1ccc(OCC(=O)N/N=C/c2ccc3c(c2)OCO3)cc1C	11%	20%
CC(=O)c1c(C)[nH]c(C(=O)NCc2ccco2)c1C	3%	-3%

Going on with the list:
Compound	N370S GC mod	FEN1 inhibitor
CC(C)(C)NS(=O)(=O)c1ccc(CCC(=O)NCc2ccccn2)cc1	-2%	-3%
CS(=O)(=O)c1ccc(Cl)c(NC(=O)c2cccc(Br)c2)c1	-1%	-5%
CC(=O)c1ccc(NC(=O)Cn2c(=O)oc3cc(S(=O)(=O)N4CCCCC4)ccc32)cc1	·	0%
COc1cc(-c2nc(-c3cccc(C(F)(F)F)c3)no2)cc(OC)c1OC	-9%	1%
CNC(=O)C(NC(=O)c1ccccc1)=C(C)C	6%	-19%
Cc1ccc(CN2CCC(CNC(=O)C3CCCN(c4ncnc5c4nc4n5CCCCC4)C3)CC2)cc1 (stereo not given)	-2%	12%
CNC(=O)Oc1ccc2c(c1)[C@@]1(C)CCN(C)[C@@H]1N2C	-3%	·
CCN(CC)CCNC(=O)c1cc(S(C)(=O)=O)ccc1OC	18%	-3%
Cc1ccc(C2=NCCn3c2c2ccc(C(F)(F)F)cc2[n+]3[O-])cc1	5%	-5%
CC(=O)Nc1ccc(/C=N/NC(=O)CNC(=O)c2ccccc2)cc1	0%	-7%
O=C(OCC(=O)N1CCCCCC1)c1cccnc1Cl	·	19%
NNc1nc2c(Cl)ccc(Cl)c2s1	-2%	-27%

Screening data deposited in PubChem BioAssay by National Center for Advancing Translational Sciences (NCATS).
